Screening results from PubChem BioAssay.
CBX7 inh: CBX7 chromodomain binding inhibitors, primary screen, biochemical, AlphaScreen | normalised signal (fraction of DMSO) (test concentration not listed) | AlphaScreen His6-CBX7 / biotin-H3K27me3 peptide binding; stronger effect = lower value | Chromobox protein homolog 7 (Homo sapiens), O95931 | 1.1% of 66,000 active; in the data active = normalised signal below about 0.5;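 note: 100 nL library stock added to about 20 µL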
Target sequence (O95931 whole entry, looked up): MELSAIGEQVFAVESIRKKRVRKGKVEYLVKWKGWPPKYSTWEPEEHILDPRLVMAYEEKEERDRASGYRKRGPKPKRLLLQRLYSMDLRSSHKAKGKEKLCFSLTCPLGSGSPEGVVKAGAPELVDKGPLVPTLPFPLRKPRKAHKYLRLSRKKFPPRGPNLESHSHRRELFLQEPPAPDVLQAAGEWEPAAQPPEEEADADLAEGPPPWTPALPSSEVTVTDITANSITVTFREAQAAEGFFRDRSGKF
CBX7 inh z-score: further read-out of CBX7 inh, marked with its call; z-score; measured here: z-score of CBX7 signal; some inactives read as strong as hits; reference of the scale not given here;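 same signal on another scale; lower means less binding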
The depositor's hits bear a star; & = joins results of further samples. This is a subset, so the mix of outcomes need not match the whole.

Sample of the layout:
SMILES	CBX7 inh	CBX7 inh z-score
O=C1CN(C(=O)c2cc(Cl)ccc2Cl)C(c2ccccc2)c2cc(F)ccc2N1 (configuration not stated)	0.92	-2.2
COc1ccc(C2c3[nH]c4ccccc4c3CCN2C(=O)c2ccc(F)cc2F)cc1 (configuration not stated)	0.6	-9.9
CC1CCN(c2nc3ccc(C(=O)N4CCc5ccccc54)cc3s2)CC1	1.3	2.8
COc1ccc(-c2[nH]c(-c3cc(OC)c4c(c3)OCO4)nc2-c2ccccc2)cc1	0.68	-11
O=C(Cn1ncc2c1-c1ccccc1OC2)N1CCN(c2ccccc2F)CC1	0.91	-1.2

The list itself, repeating the preview:
SMILES	CBX7 inh	CBX7 inh z-score
O=C1CN(C(=O)c2cc(Cl)ccc2Cl)C(c2ccccc2)c2cc(F)ccc2N1 (configuration not stated)	0.92	-2.2
COc1ccc(C2c3[nH]c4ccccc4c3CCN2C(=O)c2ccc(F)cc2F)cc1 (configuration not stated)	0.6	-9.9
CC1CCN(c2nc3ccc(C(=O)N4CCc5ccccc54)cc3s2)CC1	1.3	2.8
COc1ccc(-c2[nH]c(-c3cc(OC)c4c(c3)OCO4)nc2-c2ccccc2)cc1	0.68	-11
O=C(Cn1ncc2c1-c1ccccc1OC2)N1CCN(c2ccccc2F)CC1	0.91	-1.2
Cc1onc(-c2ccccc2Cl)c1C(=O)N1CCN(C/C=C/c2ccccc2)CC1	1	0.0082
CCCCNC(=O)Cn1nc(-c2ccccc2)ccc1=O	1	1.2
CCCCn1c(C2CC(=O)N(c3ccc(Br)cc3)C2)nc2ccccc21 (configuration not stated)	1.2	0.95
CC1(C)Cc2ccccc2-c2nnc(-c3ccc4ccccc4n3)n21	0.98	-0.026
CCC(=O)Nc1cc(-c2nc3cc(C)cc(C)c3o2)ccc1C	1	0.48
COc1cccc(C(=O)NCCc2cc3ccc(C)cc3[nH]c2=O)c1	1.2	2.4
CCN1CCN(c2nc(-c3ccccc3Cl)nc3ccccc23)CC1	0.72	-2.9
CCCCCOc1ccc(C(=O)N(Cc2cccs2)C2CCS(=O)(=O)C2)cc1 (configuration not stated)	1.1	1.3
COc1ccc(-c2noc(CCC(=O)N(C)c3cc(Cl)ccc3OC)n2)cc1	0.83	-2.4
COc1ccc(Br)c(-c2nc(Cc3ccccc3Cl)no2)c1	1	0.45
CC1(C)CC(=O)c2cc(C(=O)Nc3ccc(Br)cn3)c(=O)n(-c3ccccc3)c2C1	1	0.28
COc1cc(NC(=O)c2cc(C(C)C)on2)c(OC)cc1Cl	1.1	1.6
O=C(c1ccc(Cl)cc1)N1CCNc2ccccc2C1	0.94	-0.68
CC1=Nc2cc(C(=O)NC(C)C)ccc2Sc2c(C)ccc(C)c21	0.88	-1.8
Cc1ccc(-c2nnc(Nc3cccc(C(F)(F)F)c3)c3ccccc23)cc1S(=O)(=O)NC(C)(C)C	0.89	-1.2
Cc1ccc(Nc2c(-c3ccncc3)nc3ccc(Cl)cn23)cc1	1	0.46
O=C(CC1(O)C(=O)Nc2ccc(Cl)cc21)c1ccc(F)cc1 (configuration not stated)	1	1.1
O=C(c1ccccc1)c1ccc(-c2[nH]c(-c3cccc(Cl)c3)nc2-c2ccccc2)cc1	0.9	-0.39
CCC(=O)N1CCc2cc(S(=O)(=O)NCCN3CCCCC3C)ccc21 (configuration not stated)	1.1	2
Cc1ccc(NC(=O)Cn2c(-c3ccccc3F)nc3ccccc3c2=O)cc1	0.99	-0.27
(next part)
SMILES	CBX7 inh	CBX7 inh z-score
O=C(CCCCn1c(=O)[nH]c2ccccc2c1=O)N1CCN(c2ccc(Cl)cc2)CC1	0.76	-0.68
Cc1c(C)n(C)c2ccc(C(=O)Nc3cccnc3Cl)cc12	0.99	-0.15
CC(=O)Nc1ccc(Oc2nnc(-c3ccc(Cl)cc3)c3ccccc23)cc1	0.86	-0.2
COc1ccc(CC(=O)Nc2c(-c3cccs3)nc3ccccn23)cc1	0.95	-1.8
CCOc1ccc(S(=O)(=O)NCCc2c(C)[nH]c3ccc(Br)cc23)c2ccccc12	0.93	-0.67
Cc1ccc(CN2CC34C=CC(O3)C(C(=O)NCc3ccc5c(c3)OCO5)C4C2=O)cc1 (configuration not stated)	1	0.13
CCOc1ccc(CCNC(=O)C2CCN(S(=O)(=O)c3c(C)nn(C)c3C)CC2)cc1OCC	1.2	2.1
Cc1cccc(OCc2nc(-c3cccc(C)c3)no2)c1	1.5	23
CC1(C)NC(=O)N(CC(O)COc2ccccc2Cl)C1=O (configuration not stated)	1	0.79
Cc1nc(C)c(C(=O)Nc2ccc(Cl)cc2)s1	1	0.015
Cc1cc(N2C(=O)c3ccc(C(=O)NCc4ccccc4)cc3C2=O)no1	0.98	-0.45
Cc1ccc(C)c(CN2C(=O)c3ccccc3S(=O)c3ccc(C(=O)N4CCC(C)CC4)cc32)c1 (configuration not stated)	0.84	-1.2
Cc1nn(-c2ccccc2)c2[nH]c(C(=O)NCc3ccccc3)cc(=O)c12	0.85	-1.7
CCOC(=O)C1CCCN(c2c(NC3CCC(C)CC3)c(=O)c2=O)C1 (configuration not stated)	0.98	-0.52
O=c1[nH]c2ccc(Cl)cc2c(-c2ccccc2)c1N1CCN(Cc2ccc3c(c2)OCO3)CC1	0.83	-8.9
Cc1ccc(-n2c3c(cc(C(=O)NCCCN(C)C)c2=O)C(=O)CCC3)cc1	1.2	2.6
O=C1c2ccccc2C(Nc2ccc(F)cc2)N1c1ccccn1 (configuration not stated)	1	0.63
COc1ccc(/C=C/c2nc(-c3ccccn3)no2)cc1OC	0.86	-1.8
CCOc1cc2c(cc1OCC)C1C(C(=O)Nc3ccc(F)cc3)c3ccccc3C(=O)N1CC2 (configuration not stated)	0.98	-0.19
O=C(Nc1nc(-c2ccc(F)cc2)cs1)c1cc2ccccc2oc1=O	0.99	-0.21
COCCCNS(=O)(=O)c1ccc2[nH]c(=O)[nH]c2c1	0.9	-0.65
COc1cccc(NS(=O)(=O)c2ccc3[nH]cc(C(=O)NC4CC4)c(=O)c3c2)c1	1.1	2.7
CN(C)c1ccc(-c2nc3ncccn3c2Nc2ccc(Cl)cc2)cc1	1.1	1.2
O=C(CS(=O)(=O)c1nc(-c2ccccc2)cn1-c1ccc(Cl)cc1)Nc1ccc(F)cc1	0.86	-1.4
Cc1nc(N2CCC(C)CC2)c2c(C)c(C(=O)N3CC(C)CC(C)C3)sc2n1 (configuration not stated)	0.76	-3.4

Filtered by structure: the entries above with bromine (four)
SMILES	CBX7 inh	CBX7 inh z-score
CCCCn1c(C2CC(=O)N(c3ccc(Br)cc3)C2)nc2ccccc21 (configuration not stated)	1.2	0.95
COc1ccc(Br)c(-c2nc(Cc3ccccc3Cl)no2)c1	1	0.45
CC1(C)CC(=O)c2cc(C(=O)Nc3ccc(Br)cn3)c(=O)n(-c3ccccc3)c2C1	1	0.28
CCOc1ccc(S(=O)(=O)NCCc2c(C)[nH]c3ccc(Br)cc23)c2ccccc12	0.93	-0.67

Additional structures.
SMILES	CBX7 inh	CBX7 inh z-score
COc1cc2c(cc1OC)C(C(=O)Nc1ccc(F)c(Cl)c1)C(c1ccccc1F)N(C)C2=O (configuration not stated)	1.2	3
CCC(=O)N1CCc2cc(S(=O)(=O)Nc3cc(C)cc(C)c3)ccc21	1.5	1.8
Cc1ccc(-c2ncnn2-c2cccc(Cl)c2C)cc1	1.1	1.7
N#Cc1ccc(C(=O)Nc2ccc(-c3nc4ncccc4o3)cc2)c(F)c1	1	1.7
O=C(CSc1nnc2nc[nH]n12)Nc1ccccn1	0.99	-0.3
O=C(CSc1nc2ccccc2[nH]1)Nc1ccc(Cl)cn1	1&1.1	0.53&1.4
Cc1ccc(CCNC(=O)CC2Sc3ccccc3NC2=O)cc1 (configuration not stated)	1	0.55
COc1ccc(C(=O)c2oc3ccccc3c2NC(=O)c2ccccc2)cc1	1.2	3.5
O=C(Nc1ccc(Cl)cc1)OCCn1nnnc1C(c1ccccc1)N1CCOCC1 (configuration not stated)	1.1	2
Cc1ccccc1OCc1nc(C#N)c(NCc2cccnc2)o1	0.99	-0.32
CCOc1ccc(C(=O)Nc2nc3ccc(OC)cc3s2)cc1Br	1.3	2.7
CCN(CC)CC#CCC(OC)(c1ccccc1)c1ccccc1	0.85	-0.92
CCc1ccc(NS(=O)(=O)c2ccc3[nH]cc(C(=O)NC4CCCCC4C)c(=O)c3c2)cc1 (configuration not stated)	0.84	-0.69
O=C(Cn1nc(-c2ccccc2)c2cc(Cl)ccc21)NCCc1ccccc1	1.1	1.5
CCOC(=O)N1CCC(NC(=O)Cn2ncc3c2-c2cc(C)ccc2OC3)CC1	1.1	1.9
Cc1c(C(=O)Nc2ccc(F)cc2F)sc2ncn(CC(=O)N3CC(C)CC(C)C3)c(=O)c12 (configuration not stated)	1	0.17
CCOC(=O)c1cnc2cc(C(F)(F)F)ccc2c1N1CCN(c2ccccc2OC)CC1	0.86	-2.4
COc1ccc(OC)c(NC(=O)C2CCCNC2=O)c1 (configuration not stated)	1.1	2
COc1ccc(NC2c3ccccc3C(=O)N2c2ccccc2C)cc1Cl (configuration not stated)	0.9	-1.8
O=C(Nc1nc2ccccc2s1)C1CC(=O)N(c2ccc(Br)cc2)C1 (configuration not stated)	1	0.41
COc1cccc(-c2nn3c(Cc4ccccc4)nnc3s2)c1	1	0.98
CC1CC(O)(C#CCNc2ccc(Cl)cc2)C(C)CN1C (configuration not stated)	1.1	1.9
COc1ccc(-n2c3c(cc(C(=O)Nc4ccc(C)cc4)c2=O)C(=O)CCC3)cc1	1.1	1.7
COc1ccc(CNC(=O)c2cccc3c2C(=O)N(Cc2cccnc2)C3)cc1	1	0.035
O=C(c1ccc2c(c1)N(Cc1ccccc1F)C(=O)c1ccccc1S2)N1CCc2ccccc2C1	0.91	-1.2

Some of these compounds in order of their number in CBX7 inh z-score, highest first.
SMILES | CBX7 inh z-score
CCOC(=O)N1CCC(NC(=O)Cn2ncc3c2-c2cc(C)ccc2OC3)CC1 | 1.9
CCOc1cc2c(cc1OCC)C1C(C(=O)Nc3ccc(F)cc3)c3ccccc3C(=O)N1CC2 (configuration not stated) | -0.19
Cc1nn(-c2ccccc2)c2[nH]c(C(=O)NCc3ccccc3)cc(=O)c12 | -1.7

Structures above that have a cyano group (2):
SMILES	CBX7 inh	CBX7 inh z-score
N#Cc1ccc(C(=O)Nc2ccc(-c3nc4ncccc4o3)cc2)c(F)c1	1	1.7
Cc1ccccc1OCc1nc(C#N)c(NCc2cccnc2)o1	0.99	-0.32

Carrying on:
SMILES	CBX7 inh	CBX7 inh z-score
COc1ccc(-c2cc(C(=O)NCCCN(C)C)c3ccccc3n2)c(OC)c1	1	0.18
CCC1CCCCN1C(=O)c1c[nH]c2ccc(S(=O)(=O)Nc3cccc(OC)c3)cc2c1=O (configuration not stated)	0.81	-2.7
Cc1ccc(-n2c3c(cc(C(=O)N4CCN(C)CC4)c2=O)C(=O)CC(C)(C)C3)cc1	1	0.098
COc1ccc(CNC(=O)c2ccc3c(c2)N(Cc2ccc(F)cc2Cl)C(=O)CS3)cc1	1	1.2
CCOc1ccc(-c2cc(C(=O)NCc3ccccc3Cl)c3ccccc3n2)cc1	1.2	1.5
COc1ccc(CN(C(=O)c2ccc(Cl)cc2)C2CCS(=O)(=O)C2)cc1 (configuration not stated)	0.94	-0.062
O=C(CN1C(=O)COc2ccc(S(=O)(=O)N3CCCC3)cc21)N1CCN(c2ccc(F)cc2)CC1	1	0.63
COc1ccc(Nc2nc3nonc3nc2NCc2ccco2)cc1	0.88	-1.9
COc1ccc(-n2c(/C=C/c3cccc(OC)c3OC)nc3ccccc3c2=O)cc1OC	0.91	-0.086
Cc1nc2ccc(S(=O)(=O)NC(C(=O)N3CCC(C)CC3)C(C)C)cc2s1 (configuration not stated)	1.1	1
COc1ccc(N2C(=O)C(CC(=O)Nc3ccc(Cl)cc3)N(Cc3ccc(F)cc3)C2=O)cc1 (configuration not stated)	0.97	-1.3
Cn1c(COc2ccc(C(C)(C)C)cc2)nc2ccccc21	1	0.18
O=C(Nc1nccs1)C1CCCN1S(=O)(=O)c1cccc2cccnc12 (configuration not stated)	1.1	1.3
O=C(Nc1nc2ccc(Br)cc2s1)c1ccc(Oc2ccccc2)cc1	1.2	1.3
CCN(CC)c1ncnc2c1sc1nc3c(cc12)COC(C)(C)C3	1	0.15
CC(=O)Nc1ccc(NC(=O)C2C3C=CC(C3)C2C(=O)O)cc1 (configuration not stated)	1	0.87
O=C(CSc1nnc(Cc2cc(=O)[nH]c(=O)[nH]2)n1-c1ccccc1)c1ccc(Cl)cc1	1	0.034
COCCNC(=O)CNC(=O)c1nn(-c2ccc(OC)c(OC)c2)c(=O)c2ccccc12	1	0.21
Cc1nonc1CC(=O)Nc1ccccc1	1	0.39
Cc1c(C(=O)NCc2ccccc2)oc2ccc(S(=O)(=O)N3CCCC(C)C3)cc12 (configuration not stated)	0.91	-0.74
CC(C)c1ccc(OCC(=O)Nc2nc(-c3ccccc3)cs2)cc1	1.2	0.28
Cc1cc(C)c2nc3n(c2c1)C(=O)CS3	1	0.049
O=C(Nc1cccc(-c2nc3ncccc3o2)c1)c1ccc(Br)cc1	1	0.076
O=C1Nc2cc(C(=O)N3CCN(c4ccc(F)cc4)CC3)ccc2Sc2ccccc21	1	0.34
CCc1cccc(NC(=O)Cn2c(SCc3cccc(C)c3)nc3ccncc32)c1	0.84	-2.2
CCCNC(=O)c1cc(-c2ccc(OC)c(OC)c2)on1	1.2	1.7
Cc1nc2nc(SCC(=O)NC3CCCCC3)nn2c(C)c1Cc1cccc(Cl)c1	1	0.013
CCOc1ccc(NC(=O)c2cc3c(-c4cccc(OC)c4)nn(C)c3s2)cc1	0.89	-1.4
CCOC(=O)c1cnc2ccc(OCC)cc2c1Nc1ccc(Oc2ccccc2)cc1	0.97	-0.028
Cc1ccc(-n2nnnc2SCC(=O)N2CCOCC2)c(C)c1	0.96	-0.41
